Screening results as filed in PubChem BioAssay.
KCNQ2 enhance – potentiators of rat KCNQ2 potassium channel; AID 2239, 2010; Potassium voltage-gated channel subfamily KQT member 2 (Rattus norvegicus), O88943; hit rate 0.54% among 310,000; B-score at 10 µM; CHO-K1 KCNQ2, FluxOR thallium flux fluorescence; active compounds read high;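 active means fluorescence ratio B-score at least 3 SD of library B-scores, with initial fluorescence B-score within 3 SD, cut at about 5.3 in these data; same plate scores as AID 2156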;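 further: B-score of peak minus minimum over baseline fluorescence ratio after K+ and Tl+ stimulus; positive B-score means potentiation of KCNQ2 with more thallium influx and brighter signal; only the inactives scoring about 0 or higher are listed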
Target sequence (O88943 whole entry, looked up): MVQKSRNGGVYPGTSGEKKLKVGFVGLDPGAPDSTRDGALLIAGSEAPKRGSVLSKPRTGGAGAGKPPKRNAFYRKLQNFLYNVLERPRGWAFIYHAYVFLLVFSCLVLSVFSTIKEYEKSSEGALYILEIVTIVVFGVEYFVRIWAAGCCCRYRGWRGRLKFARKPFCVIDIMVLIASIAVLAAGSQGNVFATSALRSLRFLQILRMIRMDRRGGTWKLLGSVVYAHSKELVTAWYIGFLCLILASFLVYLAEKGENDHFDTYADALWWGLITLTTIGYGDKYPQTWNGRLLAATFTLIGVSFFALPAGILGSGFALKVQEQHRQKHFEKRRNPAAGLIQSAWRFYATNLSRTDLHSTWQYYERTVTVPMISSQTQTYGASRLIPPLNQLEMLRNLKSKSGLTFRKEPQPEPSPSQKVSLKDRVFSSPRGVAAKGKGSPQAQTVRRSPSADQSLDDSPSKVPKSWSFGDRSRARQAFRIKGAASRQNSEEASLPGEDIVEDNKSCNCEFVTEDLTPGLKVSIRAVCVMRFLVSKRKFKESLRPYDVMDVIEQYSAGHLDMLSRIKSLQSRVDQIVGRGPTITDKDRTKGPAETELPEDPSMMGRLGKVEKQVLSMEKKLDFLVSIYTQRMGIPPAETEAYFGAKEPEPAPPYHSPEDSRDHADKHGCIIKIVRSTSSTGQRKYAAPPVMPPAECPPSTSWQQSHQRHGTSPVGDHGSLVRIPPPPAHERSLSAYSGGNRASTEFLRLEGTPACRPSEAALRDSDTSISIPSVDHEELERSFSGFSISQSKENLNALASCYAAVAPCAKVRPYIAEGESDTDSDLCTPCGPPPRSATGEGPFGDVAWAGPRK
KCNQ2 enhance baseline – also measured in KCNQ2 enhance; calls as there; B-score; compound at 10 µM; measured here: initial fluorescence intensity artifact check;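 brightness before thallium and not channel activity; 0 = typical well and far values either way flag optical interference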
The depositor's hits bear a star. This is a subset, so the mix of outcomes need not match the whole.

item	Compound	KCNQ2 enhance	KCNQ2 enhance baseline
1	CCOc1ccc(OCC)c(NC(=O)C2CCCN(S(=O)(=O)c3cnc[nH]3)C2)c1 (centres undefined)	0.01	0
2	COCCn1nnnc1C(c1ccccn1)N1CCN(c2cc(C)ccc2C)CC1 (centres undefined)	1.4	0.54
3	COC(=O)Cn1cc(/C=N/NC(=O)COc2cccc3cccnc23)c2ccccc21	1.6	1.6
4	O=C1CCC(=O)N1CCOP1(=O)COc2ccccc2OC1	0.87	-0.99
5	O=C(Nc1cccc([N+](=O)[O-])c1)c1ccn[nH]1	1.2	0.42
6	O=C1c2ccccc2C(O)(c2ccccc2)N1C1CC1 (centres undefined)	0.05	-0.9
7	Cc1ccc(/C=N\Nc2nc3ccc(Cl)cc3[nH]2)o1	0.02	0.12
8	CN(C)c1ccc(NC(=S)NC(=O)/C=C/c2ccco2)cc1	0.45	0.02
9	CC(C)NC(=O)c1ccc2c(c1)N(CC(=O)N1CCOCC1)C(=O)C(C)(C)O2	0.37	0.09
10	CC(=O)NC(C)c1nc2ccccc2n1Cc1ccccc1F (centres undefined)	1.7	-2.6
11	CC(C)N(Cc1ccccc1)C(=S)NC1CCCCC1	3	-2.6
12	O=C(Nc1nnc(-c2ccc3c(c2)CCCC3)o1)c1ccc(Cl)cc1Cl	8.9*	-0.96*
13	CCC(=O)N/N=C(\C)CC(=O)Nc1ccc(Cl)cc1	0.59	-1.3
14	COc1cc(/C=C\C(=O)OCn2nnc3ccccc3c2=O)cc(OC)c1OC	0.75	-3.4
15	O=S(=O)(c1ccc(C2CCCCC2)cc1)N1CCOCC1	0.21	0.03
16	O=C(O)CC1(CC(=O)NCc2ccc(Cl)cc2)CCCCC1	0.74	-0.53
17	CCCCC(=O)Nc1nn(C)c2nc3c(C)cccc3cc12	1.3	-0.5
18	CS(=O)(=O)Nc1cccc(-c2cn3c(n2)SCC3)c1	0.02	2.5
19	CCC(=O)Nc1nnc(S(=O)(=O)N2CCCCCC2)s1	1	2
20	C1CCCC(NC2=NCCO2)CCC1	0.85	2.2
21	COc1ccc(NC(=S)NCCN2CCOCC2)c(OC)c1	3.2	-1.1
22	CC1=NOC2(C1)/C(=N/O)CCC/C2=N\O (centres undefined)	0.82	0.03
23	Cc1ccc(-n2nnc(-c3cc4ccccc4n3C)n2)cc1	0.98	1.2
24	O=C(CCNC(=O)c1ccc(Cl)cc1)Nc1cccc(S(=O)(=O)N2CCCCCC2)c1	1.5	0.24
25	CCOC(=O)c1c(S(=O)(=O)N2CCN(C3CCCCC3)CC2)c(C)n(C)c1C	0.8	-0.34
26	O=Cc1cn(CC(=O)NCC2CCCO2)c2ccccc12 (centres undefined)	0.37	-0.1
27	O=C(CSc1nc2ncc(Cl)cc2[nH]1)NCCc1ccc(F)cc1	0.66	3.3
28	CCN1C(=O)CC(NNC(=O)c2ccc(Cl)cc2)C1=O (centres undefined)	0.43	0.28
29	CC(=O)Nc1ccc(NC(=O)C(OC(=O)c2ccccc2)C(OC(=O)c2ccccc2)C(=O)O)cc1 (centres undefined)	0.53	-0.03
30	C=CCOc1ccc(/C=N/NC(=O)C(C)Sc2ccccn2)cc1OC (centres undefined)	0.39	1.8
31	CS(=O)(=O)N1CCC(C(=O)O)CC1	2.6	-0.8
32	Cc1cc(C)cc(OCC(=O)NCC2CCCO2)c1 (centres undefined)	0.25	-0.99
33	Cc1ccc(CSc2nc3ccccc3c(=O)n2CCCC(=O)NCc2ccco2)cc1	0.93	0.78
34	CCn1nc(C)c(CNC(=O)c2ccc(OC3CCN(Cc4ccccn4)CC3)cc2)c1C	1.1	-0.02
35	CCCCn1c(N)c(N(CC(C)C)C(=O)c2cc3c(s2)CCCCC3)c(=O)[nH]c1=O	0.02	0.75
36	CN(CCc1ccccn1)C(=O)CCC1CCCN(C(=O)c2ccccn2)C1 (centres undefined)	0.83	0.29
37	CCCc1nc2sc3ccccc3c(=O)c2c(=O)n1CCOC	1.4	-0.07
38	COCCC(=O)N1CCC(Oc2ccc(C(=O)N3CCCC(COC)C3)cc2)CC1 (centres undefined)	0.12	-0.06
39	COC(=O)c1cccc(NC(=O)C(C)N2C(=O)c3ccccc3C2=O)c1 (centres undefined)	0.74	-0.03
40	COc1cccc(OCC(O)CN2CC(C)CC(C)C2)c1 (centres undefined)	0.03	0.9
41	CCN(CC(=O)Nc1c(F)cccc1F)C(=O)Cc1n[nH]c(=O)c2ccccc12	0.04	0.09
42	COc1ccc2[nH]c(C)c(CCNC(=S)Nc3cccc(C)c3)c2c1	0.84	0.35
43	CS(=O)(=O)N1CCC(C(=O)Nc2ccc(Cl)cc2)CC1	0.19	1.5
44	COc1ccccc1CNc1ncc(-c2ccccc2)n1C	0.05	-0.87
45	O=C(CN1CCN(C2CCCCC2)CC1)Nc1ccccc1N1CCCCC1	0.64	0.24
46	CCO[C@H]1OC(C(=O)N2CCOCC2)=C[C@@H](c2cn(C(C)=O)c3ccccc23)[C@@H]1CCCO	0.01	0.6
47	Cc1cc(C)n(-c2nc3c(c(=O)[nH]c(=O)n3C)n2CCc2ccccc2)n1	1.9	-1.6
48	Cc1ccc(O)c(C2=NCCNC(C(F)(F)C(F)F)=C2)c1	0.75	0.74
49	COC(=O)c1sccc1S(=O)(=O)Nc1ccc(Cl)cc1	0.23	-5
50	Cc1ccc(C(=O)Oc2ccccc2N2CCOCC2)cc1	0.46	0.79

An excerpt from above in order of the KCNQ2 enhance baseline value, rising.
item	Compound	KCNQ2 enhance	KCNQ2 enhance baseline
38	COCCC(=O)N1CCC(Oc2ccc(C(=O)N3CCCC(COC)C3)cc2)CC1 (centres undefined)	0.12	-0.06
40	COc1cccc(OCC(O)CN2CC(C)CC(C)C2)c1 (centres undefined)	0.03	0.9
27	O=C(CSc1nc2ncc(Cl)cc2[nH]1)NCCc1ccc(F)cc1	0.66	3.3

Additional structures:
item	Compound	KCNQ2 enhance	KCNQ2 enhance baseline
51	FC(F)Oc1ccc(/C=N/n2c(Cc3ccc(Br)cc3)n[nH]c2=S)cc1	0.92	-0.36
52	O=C(CSc1n[nH]c(-c2ccccc2)n1)N1CCOCC1	0.71	-0.17
53	O=C(Cc1ccccc1)c1c[nH]c(C(=O)O)c1	0.16	-0.87
54	CC(C)OC(=O)CSc1nc(C(C)C)nc2ccccc12	2.9	-3.1
55	Cc1sc2ncn(CC(=O)NCC(=O)N(C)Cc3ccccc3)c(=O)c2c1C	1.4	2.3
56	COc1ccc(NC(C)=O)cc1CNC(=O)COc1ccccc1C(=O)Nc1cccc(C)c1C	0.3	-0.02
57	CCOc1ccc(NC(=O)CN2CCN(c3ccc(F)cc3)CC2)cc1	0.03	0.27
58	Cc1c(C)n(Cc2ccccc2)c2ncnc(Cl)c12	0.11	1
59	CN(CC(=O)NC(=O)NCc1ccccc1)CC(=O)Nc1ccc(Cl)c(C(F)(F)F)c1	0.3	-0.21
60	CCOC(=O)c1sc2nc(C)[nH]c(=S)c2c1C	5.1	-1.8
61	COc1ccc(-n2c(SCC(=O)Nc3cc(C)on3)nc3ccc(O)cc3c2=O)cc1OC	0.49	-1
62	CCN(CC(=O)Nc1c(F)cccc1F)C(=O)c1cccc(S(=O)(=O)NCc2ccccc2)c1	0.15	-0.04
63	Cc1ccc2c(c1)N(CCC(=O)NCC1COc3ccccc3O1)C(=O)CO2 (centres undefined)	0.08	-0.16
64	O=C(Nc1nccs1)c1ccc(-c2ccc(Cl)cc2Cl)o1	0.22	-0.26
65	COc1cc(OCC(N)=O)cc(OC)c1OC	0.89	-1.4
66	O=[N+]([O-])c1ccc(C2CCCC/C2=N/O)c([N+](=O)[O-])c1 (centres undefined)	0.66	1.6
67	Cc1csc(N2CCc3ccccc32)n1	0.34	-2.5
68	CCC(CC)C(=O)c1c[nH]c(C(=O)N2CCN(c3ccccc3)CC2)c1	1.9	0.04
69	Cc1ccc2[nH]c(O)c(N=NC(=O)C3CC3c3ccccc3)c2c1Br (centres undefined)	0.76	0.01
70	COc1ccc(NC(=O)CN(C)C(=O)CCNC(=O)c2ccccc2OC)cc1	0.79	-0.85
71	CCOC(=O)C1(Cc2cccc(OC)c2)CCCN(C(=O)c2cc(C)[nH]n2)C1 (centres undefined)	1.9	-0.02
72	COc1ccccc1C(=O)NCCC(=O)N(C)CC(=O)Nc1ccc(N2CCOCC2)cc1	0.37	0.01
73	Cc1cc(OCC(=O)NNC(=O)c2ccncc2)ccc1C(C)C	1.8	-1.6
74	CCOC(=O)c1sc(NC(=O)c2cccc(S(=O)(=O)N(CC)CC)c2)cc1C	0.88	-0.34
75	Cc1cc(Nc2cccc(F)c2)nc(N2CCOCC2)n1	0.2	-0.46
76	COc1ccccc1C1CCN(Cc2ccccc2)CC1	1.1	-0.07
77	CC(Sc1n[nH]c(N)n1)C(=O)C12CC3CC(CC(C3)C1)C2 (centres undefined)	0.37	0.77
78	Cc1cc(C)c(C(=O)Nc2ccc(C)c(C)c2)c(CC(C)(C)C(=O)O)c1	1.1	1.8
79	Cc1ccc(OC/C(O)=C(\C#N)c2nc3ccccc3s2)cc1	0.56	0.1
80	CNC(=O)CSc1nnc(SCCC(=O)O)s1	0.65	0.15
81	O=C(Nc1ccc(Cl)c([N+](=O)[O-])c1)c1ccc2c(c1)OCCO2	0.68	-1.3
82	COc1ccc(-c2csc(/N=C/N(C)C)n2)cc1OC	1.1	0.53
83	O=C(NCCN1CCCC1)C1CCC(=O)N(CCCN2CCOCC2)C1 (centres undefined)	0.24	-0.11
84	O=S(=O)(N/N=C/c1cn(Cc2ccccc2)c2ccccc12)c1ccccc1	0.61	0.84
85	Cc1ccc(-c2cc3c(n2-c2ccc(C(=O)O)cc2)CCCC3=O)cc1	0.66	-0.81
86	COc1ccc(CCN(C)CCC(=O)Nc2cc(C)ccc2C)cc1OC	1.6	0.59
87	CC(C)Oc1cccc(C(=O)C2CCCN(C(=O)c3csnn3)C2)c1 (centres undefined)	0.05	1.9
88	Nc1nc(SCC(=O)NCCCN2CCOCC2)nc2sc3c(c12)CCC3	0.58	0.37
89	OC(COC(c1ccccc1)c1ccccc1)CN1CCN(c2ccccn2)CC1 (centres undefined)	1.4	-1.5
90	CCOC(=O)C1CCN(C(=O)c2ccc3c(c2)OCO3)CC1	0.75	-1.9
91	COc1c(/C=N/NC(=O)c2ccncc2)c(CCN(C)C(C)=O)cc2c1OCO2	0.99	-0.05
92	COc1cc(NC(=O)N2CCNC2=O)cc(C(=O)Nc2cccc(C(F)(F)F)c2)c1	4.9	-0.91
93	CC1(C)C2CCC13CS(=O)(=O)NC3C2 (centres undefined)	0.87	-2.1
94	CCOC(=O)Cc1csc(NC(=O)c2cc3c(s2)CCCC3)n1	1.1	-0.01
95	Cc1ccc(-n2c(O)c(/C=N/c3ncn[nH]3)c3ccccc3c2=O)cc1	0.89	-1.6
96	O=S(=O)(Nc1ccccc1Cl)c1ccc(NS(=O)(=O)c2cccs2)cc1	0.08	3.8
97	Cc1cccc(S(=O)(=O)Nc2ccncc2)c1	0.69	0.64
98	O=C(CN1C(=O)c2ccccc2C1=O)OCC(=O)N1CCc2ccccc2C1	0.19	-1
99	Cc1c(C)c2ccc(OCC(=O)N3CCN(C(=O)C4COc5ccccc5O4)CC3)cc2oc1=O (centres undefined)	0.42	-0.79
100	COc1ccc(/C=N/NC(=O)C2c3ccccc3Oc3ccccc32)c(OC)c1	2.4	-0.21

3 compounds drawn at random from the list so far:
item	Compound	KCNQ2 enhance	KCNQ2 enhance baseline
79	Cc1ccc(OC/C(O)=C(\C#N)c2nc3ccccc3s2)cc1	0.56	0.1
92	COc1cc(NC(=O)N2CCNC2=O)cc(C(=O)Nc2cccc(C(F)(F)F)c2)c1	4.9	-0.91
85	Cc1ccc(-c2cc3c(n2-c2ccc(C(=O)O)cc2)CCCC3=O)cc1	0.66	-0.81

Next section.
item	Compound	KCNQ2 enhance	KCNQ2 enhance baseline
101	CC(=O)c1cccc(NC(=S)NC(=O)c2ccccc2Cl)c1	1.2	0.08
102	COc1cccc(CNC(=O)c2nnn(CC(=O)Nc3ccc4c(c3)OCO4)c2N)c1	0.32	0.11
103	COCc1nnc(NC(=O)CCCCCN2C(=O)c3ccccc3C2=O)s1	0.04	0.22
104	CC(C)C(=O)Nc1nnc(Cc2c[nH]c3ccccc23)s1	0.31	0.61
105	CCCC(=O)OCC(=O)Nc1ccc2c(c1)OCO2	0.64	-1.4
106	CCOC(=O)Cc1csc(NC(=O)c2ccc(Br)s2)n1	0.03	-1.1
107	CN1CCc2c(sc(/N=C/c3cc(Cl)ccc3O)c2C#N)C1	0.69	1.6
108	O=C(NC1CCCC1)C1C2C=CC(C2)C1C(=O)N1CCOCC1 (centres undefined)	1.3	0.22
109	Nc1ccc(Sc2nnnn2-c2ccccc2)c(Cl)c1	1.4	-0.73
110	CCc1cc(=O)oc2c3c(cc(OCC(=O)NCCCCCC(=O)O)c12)OC(C)(C)CC3	3.5	-0.65
111	O=C(CCn1c(=O)oc2cc(Cl)ccc21)Nc1ccc(O)cc1	0.3	-1.2

By substructure, the entries above containing a cyano group
item	Compound	KCNQ2 enhance	KCNQ2 enhance baseline
79	Cc1ccc(OC/C(O)=C(\C#N)c2nc3ccccc3s2)cc1	0.56	0.1
107	CN1CCc2c(sc(/N=C/c3cc(Cl)ccc3O)c2C#N)C1	0.69	1.6
